Six1-Eya2 blk: Six1/Eya2 interaction inhibition; Q15475+O00167; AlphaScreen GST-Six1/His-Eya2 binding, biochemical; active compounds read low; control for the full effect not named in the record; activity change, % (test concentration not listed); hit rate 0.56% among 360,000; AID 651725; in the data active = activity change below about -65%; inconclusive = about -30% to -65%; inactive = above about -30%; note: % is set by controls: 0 for no effect and ±100 for the full control effect
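Homogeneous AlphaScreen proximity assay pairing GST-Six1 with His-tagged Eya2 (added as 5X mix: 250 nM and 500 nM) in 50 mM Tris pH 8.0, 300 mM NaCl, 1 mM TCEP. Glutathione donor and nickel acceptor beads; 1 h, 37 °C, dark.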
TRPML1 ag: agonists of human TRPML1 channel; activation, % (test concentration not listed); TRPML1-expressing cells, Ca2+ dye fluorescence, FDSS; host cell line not named in the record; reference of the full effect not given here; Q9GZU1; hit rate 0.12% among 410,000; in the data active = activation above about 50%; inconclusive = about 30% to 50%; inactive = below about 30%; note: 0% is about no effect; the text of the record puts the active cut at 80%
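Agonist activity was taken from a 110 s kinetic Ca2+ dye read on the FDSS after pinning compounds onto TRPML1-DL cells. The cells were seeded at 1,500/well with Tet inducer, incubated about 16 h, then dye-loaded at room temperature.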
CtBP-E1A inh: CtBP/E1A binding inhibition. AlphaScreen GST-E1A/His-CtBP binding, 1536-well; active compounds read low; control for the full effect not named in the record. hit rate 0.49% among 340,000. activity change, % (test concentration not listed); in the data active means activity change below about -65%; inconclusive means about -30% to -65%; inactive means above about -30%; note: % is set by controls: 0 for no effect and ±100 for the full control effect
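Protein mix (5X: 125 nM each GST-E1A, His-CtBP) was incubated with pinned compound 2 h at 37 deg C in dark, in 50 mM Tris pH 8.0 buffer with 300 mM NaCl. Glutathione donor and nickel acceptor beads followed; AlphaScreen signal read after 1 h.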
D2 agonist: activates the human D2 dopamine receptor | DiscoveRx PathHunter D2 beta-arrestin, luminescence, 90 min; 100% = 57 uM dopamine signal | activation, % (concentration not given with the values) | hit rate 0.084% among 360,000 | AID 624465; in the data active = activation above about 40%; inconclusive = about 15% to 40%; inactive = below about 15%; note: compound concentration not given in the record; the text of the record calls up to 30% inactive
Target sequence (P14416 whole entry, looked up): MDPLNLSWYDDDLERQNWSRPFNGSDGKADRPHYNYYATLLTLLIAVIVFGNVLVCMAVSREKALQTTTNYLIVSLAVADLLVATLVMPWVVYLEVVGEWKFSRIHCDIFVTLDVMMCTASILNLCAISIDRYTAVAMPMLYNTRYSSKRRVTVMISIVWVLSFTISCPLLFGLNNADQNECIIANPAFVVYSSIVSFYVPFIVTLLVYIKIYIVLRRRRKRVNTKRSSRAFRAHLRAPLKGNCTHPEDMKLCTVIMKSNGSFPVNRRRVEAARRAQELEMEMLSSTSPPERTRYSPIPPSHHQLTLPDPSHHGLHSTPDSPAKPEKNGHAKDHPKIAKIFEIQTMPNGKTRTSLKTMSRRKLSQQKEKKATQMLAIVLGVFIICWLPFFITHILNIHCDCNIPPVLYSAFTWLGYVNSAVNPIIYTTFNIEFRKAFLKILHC
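Agonist mode: compounds alone added to overnight-plated D2 PathHunter cells for 90 min at 37 C, with 57 uM final dopamine (EC100) defining full response. Beta-arrestin recruitment detected by chemiluminescent reagent, read after 1 h at ambient temperature.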
D2 PAM: human D2 receptor positive allosteric modulation; P14416; hit rate 0.23% among 360,000; potentiation, % (no concentration beside the values); DiscoveRx D2 beta-arrestin cells, luminescence, 90 min; 100% = 57 uM dopamine signal; active = potentiation of 50% or more; inconclusive = 30% to 50%; inactive = 30% or less;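 note: compound concentration not given in the record; tested on top of an EC20 dose of dopamine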
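D2 cells co-treated with compound plus 50 nM dopamine (EC20) for 90 min at 37 deg C to detect potentiation. Beta-arrestin recruitment was read as enzyme-fragment luminescence after 1 h at ambient temperature. Full response was set by 57 uM dopamine.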
PINK1 modulator: changes PINK1 expression; Potency, µM (highest dose often 76.6 µM), without a hit: at the highest dose activation (PINK1 increase), most hits filed as activators; hit rate 0.2% among 410,000; PINK1 immunofluorescence, high-content cytometry, 24 h; active = well fitted activation curve with a large enough effect; inconclusive = small, poorly fitted or top-dose-only effect; inactive = flat fitted curve, though single readings scatter; cell line not stated here;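 note: potency is the fitted concentration of half-maximal effect; % of control where 0% means no effect; nearly all actives have a fitted effect of over 65% in size; a mitochondrial uncoupler was the plate control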
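A stable cell line was treated with compounds at 5 concentrations for 24 hours, with CCCP as control. PINK1 levels and mitochondrial localization were measured by immunofluorescence with mitochondrial, cell and nuclear markers after fixation, read by laser-scanning cytometry.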
The depositor's hits bear a star; . = not tested or not shown; [ ] = remark or other dose. Only part of the results is shown; the hit share may differ from the screen's.

No. | compound | D2 agonist | TRPML1 ag | PINK1 modulator
1 | CCn1c(O)c(N=Nc2ccc(S(=O)(=O)N3CCOCC3)cc2)c(=O)n(CC)c1=S | 0.4 | . | 4.0%
2 | CC(=NCc1ccc2c(c1)OCO2)c1c(O)n(C)c(=O)n(C)c1=O | -2.0 | -0.4 | 1.1%[38.3 µM]
3 | CC(C)CCn1c(N)c(C(=O)OCC2CCCO2)c2nc3ccccc3nc21 (stereo unspecified) | -6.7 | 2.6 | -1.6%
4 | CN(C)c1ccc(/C=C2\CC3C4CC=C5CC(O)CCC5(C)C4CCC3(C)C2=O)cc1 (stereo unspecified) | -4.0 | 0.0 | 5.2%
5 | Cn1c(O)c(C=NCCCNC2CCCCC2)c(=O)n(C)c1=O | -0.9 | -0.7 | 2.2%
6 | COc1ccc(NC(=O)CN(C)C(=O)CSC(c2ccccc2)c2ccccc2)cc1 | -3.4 | 2.4 | -0.8%
7 | CCOc1cc(-c2nc3c(C)cccn3c2NCC2CCCO2)ccc1O (stereo unspecified) | 7.4 | -0.7 | 0.1%
8 | CC(=O)c1ccc(OC(NC(=O)Cc2ccccc2)C(Cl)(Cl)Cl)cc1 (stereo unspecified) | 2.2 | -0.2 | .
9 | CCOC(=O)C(NC(C)=O)C(OC(C)=O)c1cccc(N(CCCl)CCCl)c1 (stereo unspecified) | 3.2 | 0.6 | -0.6%
10 | CC1CN=C(Nc2ccc(N(C)C)cc2)S1 (stereo unspecified) | 1.6 | 0.4 | -2.2%[38.3 µM]
11 | Cn1ccnc1P(=S)(c1nccn1C)N1CCOCC1 | -1.4 | 0.0 | 11%[38.3 µM]
12 | CN1C(=O)C(c2ccccc2)C(=O)N(C)C1=O | -3.8 | -0.2 | 14%
13 | Clc1ccc(C(Cn2ccnc2)OCc2csc3c(Cl)cccc23)c(Cl)c1 (stereo unspecified) | -2.1 | 1.3 | 0.3%
14 | O=C(c1cccn2c(=O)c3cc(Cl)ccc3nc12)N1CCC2(CC1)OCCO2 | -0.2 | -0.1 | 6.5%[38.3 µM]
15 | Nc1ccccc1C(=O)OCCc1ccccc1 | 5.3 | -0.3 | 2.7%

No. | Six1-Eya2 blk | CtBP-E1A inh | D2 PAM
1 | -3 | -7 | -14
2 | -17 | -24 | -2
3 | 13 | 5 | -3
4 | 7 | 19 | -3
5 | 1 | 2 | 10
6 | -3 | . | -12
7 | -6 | -24 | 6
8 | 8 | 7 | -8
9 | 4 | 1 | -2
10 | -25 | -18 | -25
11 | 3 | 4 | 2
12 | -7 | -10 | -10
13 | -3 | -24 | -9
14 | 8 | 4 | 3
15 | 7 | 20 | -6

Single records, as listed above. Order of values: D2 agonist	TRPML1 ag	PINK1 modulator	Six1-Eya2 blk	CtBP-E1A inh	D2 PAM
`CN(C)c1ccc(/C=C2\CC3C4CC=C5CC(O)CCC5(C)C4CCC3(C)C2=O)cc1` (stereo unspecified) is listed as -4.0	0.0	5.2%	7	19	-3
`CC(C)CCn1c(N)c(C(=O)OCC2CCCO2)c2nc3ccccc3nc21` (stereo unspecified) is listed as -6.7	2.6	-1.6%	13	5	-3
`CCn1c(O)c(N=Nc2ccc(S(=O)(=O)N3CCOCC3)cc2)c(=O)n(CC)c1=S` is listed as 0.4	.	4.0%	-3	-7	-14
`O=C(c1cccn2c(=O)c3cc(Cl)ccc3nc12)N1CCC2(CC1)OCCO2` is listed as -0.2	-0.1	6.5%[38.3 µM]	8	4	3

Returning to the listing, starting four compounds before the break.
No. | compound | D2 agonist | TRPML1 ag | PINK1 modulator
12 | CN1C(=O)C(c2ccccc2)C(=O)N(C)C1=O | -3.8 | -0.2 | 14%
13 | Clc1ccc(C(Cn2ccnc2)OCc2csc3c(Cl)cccc23)c(Cl)c1 (stereo unspecified) | -2.1 | 1.3 | 0.3%
14 | O=C(c1cccn2c(=O)c3cc(Cl)ccc3nc12)N1CCC2(CC1)OCCO2 | -0.2 | -0.1 | 6.5%[38.3 µM]
15 | Nc1ccccc1C(=O)OCCc1ccccc1 | 5.3 | -0.3 | 2.7%
16 | CC(Cc1ccccc1)NC(=O)Cc1ccc([N+](=O)[O-])cc1 (stereo unspecified) | 8.8 | -1.2 | 0.8%
17 | O=C(O)C1C2CCC(O2)C1C(=O)NC1CCCCC1 (stereo unspecified) | -0.1 | 0.4 | 6.2%
18 | COc1ccc(-n2cnc3cc(C(=O)N4CCC5(CC4)OCCO5)ccc32)cc1 | -6.2 | 0.6 | 9.8%
19 | CC(=O)OC1CC[C@]2(C#N)[C@H]3CC[C@]4(C)[C@H](C5C=CC(=O)O5)CCC4(O)C3CCC2(O)C1 (stereo partly specified) | -6.4 | 1.3 | -0.1%
20 | O=C(CCCc1ccc(N(CCCl)CCCl)cc1)NCc1ccccc1 | -3.7 | 0.0 | 0.5%
21 | CCOP(=O)(OCC)C(CC)N1CCOCC1 (stereo unspecified) | -3.7 | -0.4 | 2.3%
22 | CCOC(=O)C1(c2ccccc2)CCN(CC(O)c2ccc(NC(C)=O)cc2)CC1 (stereo unspecified) | -2.6 | -0.7 | 1.3%
23 | Cc1cccc(OCC(=O)N2CCN(Cc3ccncc3)CC2)c1 | -1.5 | 0.0 | -0.3%
24 | CN1CCN(c2nccc3c2ncn3C)CC1 | -2.8 | 1.9 | 0.4%
25 | CN1CCN(c2ccc(C=O)cc2)CC1 | -1.0 | 4.0 | 0.2%
26 | CCCNC(=O)N1[C@H]2CC[C@@H]1C(C(=O)OC)=C(c1ccc(F)cc1F)C2 | -0.1 | 0.8 | -0.2%
27 | O=[N+]([O-])c1nccn1CC(O)CN1CC1 (stereo unspecified) | -2.5 | -0.3 | 1.1%
28 | CN1CCCN(C(=O)COc2ccc(F)cc2Cl)CC1 | -9.4 | 2.4 | 2.1%
29 | O=C1NCN(c2ccccc2)C12CCN(C(c1ccnc3ccccc13)c1nnnn1C1CCCCC1)CC2 (stereo unspecified) | -3.5 | -0.2 | 0.4%
30 | CN(C)C1(c2nnnn2-c2ccc(Cl)cc2)CCCCC1 | -2.8 | -0.8 | 3.0%

No. | Six1-Eya2 blk | CtBP-E1A inh | D2 PAM
12 | -7 | -10 | -10
13 | -3 | -24 | -9
14 | 8 | 4 | 3
15 | 7 | 20 | -6
16 | -2 | . | -1
17 | 8 | 0 | 0
18 | 1 | . | -7
19 | -3 | . | -9
20 | 9 | 2 | -10
21 | 0 | 2 | -4
22 | 4 | -1 | -11
23 | 6 | -1 | -17
24 | -2 | 1 | -38
25 | 4 | 0 | -14
26 | 1 | 6 | -1
27 | 10 | -2 | -1
28 | -2 | 3 | -17
29 | 1 | 3 | -5
30 | -7 | 11 | -4

Further entries
No. | compound | D2 agonist | TRPML1 ag | PINK1 modulator
31 | FC(F)(F)c1ccccc1CCN1CCNCC1 | 2.9 | 0.7 | -1.2%
32 | COC(=O)C1=C(c2ccccc2)C[C@@H]2CC[C@H]1N2C(=O)N1CCC(O)CC1 | -2.3 | -0.3 | -0.3%
33 | Cc1ccccc1-n1c(O)c(/C=C2/C(c3ccccc3)=Nc3ccccc32)c(=O)[nH]c1=O | -0.4 | 1.3 | 1.6%
34 | COCCCNP1(=O)OCC(C)([N+](=O)[O-])CO1 (stereo unspecified) | -3.1 | -0.2 | 0.7%
35 | C1CCCN(C2CCNCC2)CC1 | -3.8 | -0.2 | -0.5%
36 | CN(C(=O)c1ccco1)C1(c2ccccc2Cl)CCCCC1=O (stereo unspecified) | -2.8 | -0.8 | -0.2%

No. | Six1-Eya2 blk | CtBP-E1A inh | D2 PAM
31 | -3 | -3 | -31
32 | 1 | 1 | -10
33 | 1 | -9 | -14
34 | -3 | 3 | -18
35 | 9 | 3 | 2
36 | 2 | 3 | -4

Bioassay records from PubChem BioAssay.
